Compound activity from PubChem.
Rce1 inhib – inhibitors of yeast Ras-converting enzyme; calls only; yeast membranes, quenched prenylated peptide cleavage fluorescence; actives 0.27% (n = 290,000); Q03530;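 active = fall in fluorescence gain of 50% or more versus controls, with final raw signal at or below 3038400; inconclusive = same 50% fall but final raw signal above 3038400; inactive = fall in fluorescence gain under 50%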;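 also: plate controls were neutral control wells for no effect and wells lacking membranes for full effect; tested at 10 µM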
Target sequence (Q03530 whole entry, looked up): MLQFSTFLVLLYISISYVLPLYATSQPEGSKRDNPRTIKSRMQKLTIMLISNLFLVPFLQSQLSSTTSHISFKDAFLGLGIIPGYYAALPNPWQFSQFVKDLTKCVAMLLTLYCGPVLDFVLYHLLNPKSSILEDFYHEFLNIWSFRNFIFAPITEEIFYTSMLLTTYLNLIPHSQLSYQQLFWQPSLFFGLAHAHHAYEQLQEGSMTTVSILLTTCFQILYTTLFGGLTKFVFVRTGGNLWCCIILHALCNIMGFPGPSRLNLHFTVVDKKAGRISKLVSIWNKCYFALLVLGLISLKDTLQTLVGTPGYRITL
CSC inhib – cancer stem cell inhibition. cancer stem cell-like cells viability, luminescence. inhibition, % at 7.5 µM. actives 1.1% (n = 300,000);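 active = mean at 75% or more and at least half the replicates too; inconclusive = mean and replicates disagree; tested in HMLE shEcad cells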;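 also: 0% = median of negative and 100% = median of positive control wells; the first replicate is given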
eIF4H inh – inhibitors of RNA binding by human eIF4H. actives 0.94% (n = 290,000). inhibition, % at 35 µM. Q15056. AID 2012. eIF4H fluorescence polarization binding assay;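 active = 50% or more with normal probe brightness, or confirmed in later tests; inconclusive = above 50% with abnormal brightness, or retests that disagree; inactive = below 50% or failed in later tests; about a fifth of its hits are not listed in these tables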;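 also: calls also rest on retests at 20 µM and on dose response follow-up; 0% = protein and probe with vehicle and 100% = probe without protein; strong numbers were not always called active; many hits fall short of the cut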
UUG fidelity – modulators of start codon recognition fidelity in yeast; S. cerevisiae UUG-firefly luciferase reporter, luminescence/redox ratio; activity score, % at 18.7 µM; actives 0.13% (n = 350,000); AID 602363;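 active = replicate mean at a twofold rise or more, about +100% in these data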;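 also: firefly luciferase made from a UUG start codon reports start codon fidelity; reporter light over untreated wells divided by growth signal over untreated wells; some hits fall short of that in this replicate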
HIV Env fusion – blocks HIV Env-driven cell-cell fusion; HeLa-JRFL Env/CEM21 cell fusion, luciferase; actives 1.1% (n = 360,000); inhibition, % at 12.3 µM;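 active = mean replicate inhibition score of at least 50 and every replicate individually at or above 50; inconclusive = only one of the two criteria met; inactive = mean below 50 and not all replicates reaching 50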;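 also: 0% = plate neutral controls and 100% = maraviroc near 300 nM; one replicate is shown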
MT1-MMP act inh – blocks activation of human MT1-MMP; GFP/RFP ratio change, % at 20 µM; HT1080 RFP-PRO-GFP cells, GFP/RFP ratio fluorescence, overnight; percent of plate control window, DMSO zero; P50281; actives 0.061% (n = 360,000);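 active = GFP/RFP ratio change of at least 30% with cell ATP level not reduced by more than half and red fluorescence within 50% of control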; also: strong numbers were not always called active
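Compound: 20 µM single dose, 1% DMSO / System: HT1080 RFP-PRO-GFP cells / Controls: DMSO and RFP-L50D-GFP cell wells / Read-out basis: GFP/RFP fluorescence ratio / Schedule: overnight compound exposure at 37 °C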
PABP FP inh – blocks human PABP binding to poly(A) RNA | inhibition, % at 35 µM | actives 1% (n = 290,000) | P11940 | fluorescence polarization;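 active = 50% or more with normal probe brightness, or confirmed in later tests; inconclusive = above 50% with abnormal brightness, or retests that disagree; inactive = below 50% or failed in later tests; about a fifth of its hits are not listed in these tables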;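 also: calls also rest on retests at 20 µM and on dose response follow-up; controls were probe without protein and protein plus probe with vehicle; some compounds called inactive have numbers as strong as hits; many hits fall short of the cut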
eIF4H inh retest – also measured in eIF4H inh; calls as there; inhibition, %; compound at 20 µM; confirmation average;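 mean of two retest wells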
PABP FP inh retest – also measured in PABP FP inh; calls as there; inhibition, %; compound at 20 µM; confirmation repeats;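 mean of two retest wells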
MT1-MMP act inh RFP – recorded beside MT1-MMP act inh, whose call it bears; RFP signal change, %; measured here: RFP expression control read;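 0 = vehicle wells; hits needed this value within 50% of zero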
* marks the source's active call; other numbers are inactive results; i = inactive; ? = inconclusive; / = not tested or not shown.

SMILES	Rce1 inhib	CSC inhib	eIF4H inh	UUG fidelity	HIV Env fusion	MT1-MMP act inh	MT1-MMP act inh RFP	PABP FP inh	others
O=C(c1cccc(OC2CCN(Cc3cc(F)cc(F)c3)CC2)c1)N1CCCC1	i	-7	-11	/	4	5	0	2
O=c1[nH]c2ccccc2n1CCCSCCCn1c(=O)[nH]c2ccccc21	i	3	-13	5	35	-5	-14	-8
COc1ccc(NC(=O)c2cccc(N3C(=O)C4C5C=CC(C6CC56)C4C3=O)c2)cc1 (configuration not stated)	i	-9	-10	-15	8	3	-14	-4
NNc1nc2c(Cl)cccc2s1	i	17	3	-20	/	4	-7	2
O=c1[nH]c(C2CCN(S(=O)(=O)Cc3ccccc3)CC2)nc2c1nnn2Cc1ccccc1	i	0	4	1	-7	-1	-6	9
O=C(Nc1ccccc1Cc1ccccc1)c1ccccc1F	i	-31	9	-16	2	-1	0	9
O=C(C1CCCN(S(=O)(=O)c2cccc3nsnc23)C1)N1CCN(c2ccccn2)CC1 (configuration not stated)	i	15	2	-16	/	-1	-7	-4
C=CCN1C(=O)C2(NC(=O)c3ccccc3N2)c2ccccc21 (configuration not stated)	i	-3	-3	/	-10	-1	-4	-10
Cc1cccc(NC(=O)c2cnccn2)c1	i	-9	-6	-14	-10	2	2	6
CCOC(=O)N1C(=O)c2cc(OC)ccc2S1(=O)=O	i	8	4	-9	/	-16	-9	6
CCCCNC(=O)c1cc2cc(CC)ccc2[nH]1	i	2	0	/	2	2	-6	5
COCc1cc(C)nc2sc(C(=O)OC)c(N)c12	i	10	-1	-14	24	3	-2	-2
Nc1ncnc2nc(N3CCN(C(=O)c4ccccc4)CC3)[nH]c12	i	0	-2	-11	/	1	2	0
COc1ccc(/C=C(\C#N)C(=O)C(C)(C)n2cncn2)cc1	i	-9	-8	/	-10	-7	5	-24
CN1CCN(/N=C/c2nc(-c3ccccc3)n3ccccc23)CC1	i	0	-2	-39	-17	-3	2	-5
COc1ccc(Cl)cc1C(=O)Nc1nc2ccccc2[nH]1	i	14	7	-72	-38	0	3	8
CCc1ccc(C2CC(c3ccccc3)Nc3nc(N)nn32)cc1 (configuration not stated)	i	-23	0	5	11	5	2	-1
COc1ccc(C(=O)NCCn2cc(SCC(N)=O)c3ccccc32)cc1	i	-7	-2	/	7	-1	-1	0
COc1ccc(NC(=O)c2ccc(NC(=O)CCS(=O)(=O)c3cccs3)cc2)cc1	/	7	9	-15	3	-2	-2	-6
CC(=O)c1ccc(NS(=O)(=O)c2cc3c(cc2C)N(C)CCO3)cc1	i	-1	-13	5	-1	-5	-4	-5

Reprinted at random: two records from the list
SMILES	Rce1 inhib	CSC inhib	eIF4H inh	UUG fidelity	HIV Env fusion	MT1-MMP act inh	MT1-MMP act inh RFP	PABP FP inh	others
Cc1cccc(NC(=O)c2cnccn2)c1	i	-9	-6	-14	-10	2	2	6
O=C(Nc1ccccc1Cc1ccccc1)c1ccccc1F	i	-31	9	-16	2	-1	0	9

Next section
SMILES	Rce1 inhib	CSC inhib	eIF4H inh	UUG fidelity	HIV Env fusion	MT1-MMP act inh	MT1-MMP act inh RFP	PABP FP inh	others
Cc1cccc(N2CN(Cc3ccco3)CNC2=S)c1	i	-6	18	/	8	0	5	-15
O=c1cc(N2CCCCCC2)[nH]c(=O)n1-c1ccccc1Cl	i	-21	-6	/	7	-2	6	11
COc1cccc(C2NC(=S)NC(C)=C2C(=O)c2ccccc2)c1OC (configuration not stated)	i	3	-9	/	-2	-2	-10	13
COc1cccc(NC(=O)C(C)Oc2ccccc2)c1 (configuration not stated)	i	20	1	-10	2	0	4	5
COc1ccc(C)cc1NC(=O)c1cc(S(=O)(=O)N2CCOCC2)cn1C	i	1	-14	-9	-31	1	5	-9
NNC(=O)c1cc(-c2ccc(N)cc2)nc2ccc(Br)cc12	i	13	-3	-14	2	7	4	5
Cc1c(C(=O)N(C)Cc2ccccc2)oc2ccc(S(=O)(=O)N3CCCC3)cc12	i	1	-6	19	9	11	-2	-6
Cc1cc(C)nc(Nc2nc(C(N)c3ccccc3)cs2)n1 (configuration not stated)	/	/	/	0	-32	0	0	/
CSc1ccccc1NC(=O)Nc1ccccc1	i	7	5	-12	/	-2	-6	3
Cc1ccc(NC(=O)CNc2ccc(Cl)c(Cl)c2)cc1S(=O)(=O)N(C)C	i	7	1	3	20	-5	-22	-14
Cc1cc([N+](=O)[O-])nn1CC(=O)NCCc1c[nH]c2ccccc12	i	5	-3	/	-6	14	8	?
COc1ccc(C(=O)CCC(=O)Nc2ccc(Cl)cc2)cc1	i	/	6	-15	22	4	1	2
Cc1ccc(C(O)P(=O)(OCCC(C)C)c2ccc(N(C)C)cc2)cc1 (configuration not stated)	i	-2	-6	0	20	-1	-7	5
Cc1oc(-c2ccc(F)cc2)nc1CN1CCCC(C(=O)N2CCOCC2)C1 (configuration not stated)	i	/	-11	-26	0	-4	1	-8
O=[N+]([O-])c1ccc2nc(CCCc3nc4ccc([N+](=O)[O-])cc4[nH]3)[nH]c2c1	/	0	3	/	6	7	-2	-5
COc1ccc(-c2nnc(SC(C)C(=O)Nc3nccs3)n2-c2ccccc2)cc1OC (configuration not stated)	i	-2	0	/	/	-2	2	6
O=C(COc1ccc(C(=O)c2ccccc2)cc1)NC1CCCCC1	i	6	-4	-6	19	1	10	-16
Cc1ccc2c(c1)C1(OCCCO1)C(=O)N2CC#N	i	-7	5	-17	5	-2	1	9
CCn1c(NC(=O)c2ccc(F)cc2)c2ccccc2nc1=O	i	-1	6	-9	-491	0	-1	6
Cc1[nH]nc(SCC(=O)N(C)c2ccccc2)c1[N+](=O)[O-]	i	-11	6	-18	-15	1	3	20
CN(C)Cc1csc(Nc2ccc(C(F)(F)F)cn2)n1	/	/	/	-7	2	0	5	/
COc1cccc(N=CC2=C(O)CC(C)(C)CC2=O)c1	i	12	8	-31	19	4	5	10
CCOc1ccc(NC(=O)Nc2nc(SCC)ns2)cc1	i	17	14	-15	9	-2	-15	-3
COc1ccc(OC)c(Cc2nnc(CCC(=O)NCc3nc4ccccc4s3)o2)c1	i	/	-2	-8	8	-2	3	14
O=C(NCCN1C(=O)S/C(=C\c2cccnc2)C1=O)c1ccc(S(=O)(=O)N2CCCC2)cc1	i	2	2	-28	13	-17	-6	-4
Cc1ccc2nc(C)c3c(c2c1)N(c1ccc(F)cc1)CC3	i	-5	6	-8	-112	0	1	16
CCc1noc(C)c1C(=O)N1CCN(S(=O)(=O)c2ccc(Cl)s2)CC1	i	-11	/	-13	/	-1	6	/
Cc1ccc(-c2nnc3c4ccccc4c(C)nn23)cc1S(=O)(=O)N1CCN(C)CC1	/	-23	/	-5	-21	-6	-1	/
O=C(O)c1ccc(COc2c(F)c(F)c(F)c(F)c2F)o1	i	-5	-4	/	-10	2	5	-13
Cc1ccc(NS(=O)(=O)c2ccc3c(c2)NC(=O)CO3)cc1	i	/	-23	-5	-5	4	2	4
COc1cccc(NS(=O)(=O)c2cc(C)ccc2OC)c1	i	-24	-7	-21	/	0	-5	-12
CCC1Cc2c(nc(N)c3c(N)nc(N4CCOCC4)c(C#N)c23)O1 (configuration not stated)	i	-44	-15	/	16	/	/	-8
CC(C)(C)c1ccc(OCC(=O)NN2Cc3ccccc3C2=N)cc1	i	23	4	/	8	1	-4	8
CN(C(=O)COC(=O)c1cc(S(=O)(=O)N2CCOCC2)ccc1F)C1CCS(=O)(=O)C1 (configuration not stated)	i	-5	/	/	3	4	-2	/
CC(=O)Oc1cc2oc(=O)cc(C)c2cc1Cl	i	3	-8	-31	-5	1	4	56	eIF4H inh retest=-6;PABP FP inh retest=4
CN(C(=O)c1cccc(NC(=O)Cc2ccc(NC(=O)C3CCN(S(=O)(=O)c4cccc([N+](=O)[O-])c4)CC3)cc2)c1)C1CCCCC1	/	/	/	-15	2	-2	-7	/
COC(=O)C1CC2=C(CCC2=O)N(c2ccccc2)C1=O (configuration not stated)	/	/	/	-17	-3	4	6	/
Cc1ccc2c(C(=O)CN3CCC4(CC3)OCCO4)c(C)[nH]c2c1	/	20	-12	-15	-33	0	3	-3
Cc1cc[n+](-c2[nH]c(=O)sc2/C=N/N=C(\[O-])c2ccccc2)cc1	i	-17	73	-3	4	-2	-1	35*	eIF4H inh retest=30;PABP FP inh retest=52*
Cc1ccccc1NC(=O)c1nnn(-c2ccc3c(c2)OCCO3)c1N	i	/	4	-18	-92	0	-4	4

Nothing new here: entries from further up.
SMILES	Rce1 inhib	CSC inhib	eIF4H inh	UUG fidelity	HIV Env fusion	MT1-MMP act inh	MT1-MMP act inh RFP	PABP FP inh	others
Cc1ccc(-c2nnc3c4ccccc4c(C)nn23)cc1S(=O)(=O)N1CCN(C)CC1	/	-23	/	-5	-21	-6	-1	/
O=C(O)c1ccc(COc2c(F)c(F)c(F)c(F)c2F)o1	i	-5	-4	/	-10	2	5	-13
Cc1ccc(NS(=O)(=O)c2ccc3c(c2)NC(=O)CO3)cc1	i	/	-23	-5	-5	4	2	4
COc1cccc(NS(=O)(=O)c2cc(C)ccc2OC)c1	i	-24	-7	-21	/	0	-5	-12
CCC1Cc2c(nc(N)c3c(N)nc(N4CCOCC4)c(C#N)c23)O1 (configuration not stated)	i	-44	-15	/	16	/	/	-8
CC(C)(C)c1ccc(OCC(=O)NN2Cc3ccccc3C2=N)cc1	i	23	4	/	8	1	-4	8
CN(C(=O)COC(=O)c1cc(S(=O)(=O)N2CCOCC2)ccc1F)C1CCS(=O)(=O)C1 (configuration not stated)	i	-5	/	/	3	4	-2	/

Additional results.
SMILES	Rce1 inhib	CSC inhib	eIF4H inh	UUG fidelity	HIV Env fusion	MT1-MMP act inh	MT1-MMP act inh RFP	PABP FP inh	others
O=C(COC(=O)Cc1cccs1)Nc1ccccc1Cl	i	/	-2	/	0	1	2	-2
OCc1cn(-c2ccccc2)nc1-c1cc2ccccc2o1	i	6	7	-16	-116	1	0	9
COC(=O)c1[nH]c2c(c1C)C(=O)CC(c1cc(OC)c(OC)c(OC)c1)C2 (configuration not stated)	i	-4	4	-16	16	0	-17	3
COC(=O)c1nn(-c2ccccc2)c(-c2ccccc2)c1C(=O)c1ccccc1	i	15	13	9	/	-11	-2	8
Cc1ccc(CN2C3=NCCCN3c3ccccc32)cc1	/	-1	2	-9	/	2	-1	-3
COc1ccc(Nc2ccncc2[N+](=O)[O-])cc1	i	-4	-4	/	-29	-17	-6	0
CN(C)C(=O)c1coc2nc3ccccc3nc12	i	-1	0	/	-3	-6	1	8
CNc1oc(-c2cccs2)nc1C#N	i	6	-4	-7	/	1	1	-2
COc1cc(S(=O)(=O)Nc2ccccc2)ccc1NC=O	i	-7	-11	-8	-25	2	3	-8

Not a hit list (roughly 2.9% active in at least one column).
